HIV TAR-Tat: HIV-1 TAR-Tat binding disruption. HIV-1 TAR RNA, Tat peptide displacement FRET; hits give high values. hit rate 0.6% among 100,000. z-score (test concentration not listed);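 further: score is relative to mean and SD of negative controls; some compounds called inactive have numbers as strong as hits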
CDC25B CDK2 inh: human CDC25B-CDK2/CyclinA binding inhibition. AID 1259370. hit rate 0.72% among 94,000. P30305+P24941. z-score (no concentration beside the values). HTRF CDC25B-CDK2/CyclinA binding, anti-His/anti-Flag; hits give high values;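 further: score is relative to mean and SD of negative controls; strong numbers were not always called active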
Starred values were filed as active, the others as inactive; nt = not tested or not shown.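 How the source made its calls: active means z-score from 3 up in half or more of its runs; inactive means the rest.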

canonical_smiles,CDC25B CDK2 inh,HIV TAR-Tat
COc1ccc(-c2cc(C)no2)cc1S(=O)(=O)N1CCCC(C)C1 (stereo not drawn),nt,-0.5
Cc1ccc2nc(Nc3nc4c(c(=O)[nH]3)CCC4)nc(C)c2c1,1.7,nt
Cc1nc(-c2cccs2)c(CC(=O)NCCC2=CCCCC2)s1,0.31,-3.2
CCOC(=O)Cn1ccc2nc(SC)ncc2c1=O,0.62,-0.51
O=C(C1CCCCC1)n1c(=O)oc2cc(Br)ccc21,nt,-3.2
c1ccc(-n2nnnc2Oc2cccc(CNCCc3c[nH]c4ccccc34)c2)cc1,nt,1.2
COc1ccc(OC)c(Nc2ncc3c(n2)CCN(Cc2ccc(OC)cc2OC)C3)c1,nt,1.2
CCN(CC)CCN1CC(O)=C(c2nc3ccc(C)cc3[nH]2)C1=N,-1.4,1.3
COc1ccc(-c2nnc3ccc(SCc4ccccc4F)nn23)cc1OC,-2,nt
c1ccc(-c2cn3c4ccccc4n(CCN4CCOCC4)c3n2)cc1,0.11,0.81
NC(=O)Cc1nc(-c2cc3ccccc3oc2=O)cs1,-0.35,nt
Cc1ccc(N2C(=O)c3oc4ccccc4c(=O)c3C2c2ccccc2)nc1 (stereo not drawn),-0.84,-0.25
O=C(O)CSCC(=O)Nc1ccc(F)cc1,2,nt
c1ccc(OCc2nn3c(-c4ccccc4)nnc3s2)cc1,0.09,0.97
FC(F)(F)c1nnc2sc(-c3cccc(Cl)c3)nn12,-1,0.04
Cn1ccnc1SCC(=O)c1ccc(Cl)cc1,-1.6,nt
Cc1nc2c(c(C)nn2C(C)(C)C)c(C)c1CCC(=O)NC1CCCC1,-1.1,2.5
CC(C(=O)NCCC1=CCCCC1)n1c(=O)c2cccn2c2cccnc21 (stereo not drawn),nt,1.6
COc1ccc(NS(=O)(=O)c2ccc(N3CCCCS3(=O)=O)cc2)c(OC)c1,nt,1.3
CCOC(=O)CSc1nc(-c2ccccc2OC)nc(C)c1C(C)=O,-1.7,nt
NC(=S)N/N=C/c1ccc(F)c(Cl)c1,-0.38,nt
CCOc1ccc(N2C(=O)c3cccnc3C2Nc2cc(OC)cc(OC)c2)cc1 (stereo not drawn),0.68,1.4
Cc1ccc2c(c1)C(O)(CC(=O)c1cccc(Br)c1)C(=O)N2 (stereo not drawn),0.02,nt
CCc1nn(CC(=O)N2CCc3ccccc32)c(=O)c2cc3sccc3n12,-3.3,0.56
CN(C)c1cc2c(Nc3ccc4c(cnn4Cc4ccccc4)c3)ncnc2cn1,2.1,nt
c1ccc(OCc2nc3ccccc3s2)cc1,-1.4,0.8
CCOC(=O)c1c(C)oc2ncnc(Nc3cc(CO)ccc3C)c12,-0.28,0.07
CCN(c1cccc(C)c1)S(=O)(=O)c1cn(C)cn1,nt,0.45
CCCCNC(=O)c1c(O)c2cccc3c2n(c1=O)CCC3,-4.8,nt
O=C(CC1C(=O)Nc2ccccc2N1S(=O)(=O)c1cccs1)Nc1cccc(Cl)c1 (stereo not drawn),-0.95,nt
CC1CCN(c2nc3ccccc3c3nc(-c4cccnc4)nn23)CC1,-0.03,1.6
O=C(NC1CCCC1)c1cc2nc(-c3ccc(F)cc3)cc(C(F)(F)F)n2n1,nt,-1
COc1cc(C(=O)N2CCCN3C(=O)c4ccccc4C23)cc(OC)c1OC (stereo not drawn),-1.7,nt
CCC(=O)Nc1ccccc1SCc1cc(=O)n2c(C)csc2n1,nt,0.64
CCCc1cnc(N2CCCN(C(=S)Nc3cccnc3)CC2)nc1,-1.9,nt
O=C(CSC1=Nc2ccccc2C2=NC(c3ccccc3)C(=O)N12)NCc1ccc(F)cc1 (stereo not drawn),nt,-0.44
CC1CCCC(NC(=O)C2CCN(S(=O)(=O)c3cnc[nH]3)CC2)C1C (stereo not drawn),-0.83,1.5
Cn1c(=O)oc2cc(S(=O)(=O)N3CCC(C(=O)N4CCN(C5CCCC5)CC4)CC3)ccc21,-0.67,nt
COc1ccc(-c2noc(Cc3ccccc3)n2)cc1OC,-1,2.5
O=C(CSc1nc(-c2ccccc2)no1)Nc1nccs1,nt,0.28
O=C(NC(c1ccccc1)c1nnc(-c2ccccc2)o1)c1ccccc1Br (stereo not drawn),-1.1,0.65
COC(=O)c1sc2cccc(F)c2c1S(=O)(=O)NCc1ccco1,nt,-0.33
CC1CCC(NC(=O)C2CCN(c3ncnc4c3nc3n4CCCCC3)CC2)CC1 (stereo not drawn),nt,-0.43
CCCNC(=O)CCSc1nc(-c2ccco2)cc(C(F)(F)F)n1,-1.9,-0.09
CCN(CC)CCNc1ncnc2onc(C)c12,nt,-0.3
CSc1ccc(CCNC(=O)c2cnc3sc(N4CCOCC4)nn3c2=O)cc1,nt,0.35
O=c1[nH]nc(-c2ccc(Cl)cc2)c2ccccc12,0.59,nt
CC1CCN(c2c(S(=O)(=O)c3ccc(Cl)cc3)cnc3cc4c(cc23)OCCO4)CC1,-5.1,0
CN(CC1COc2ccccc2O1)S(=O)(=O)c1ccc(-c2ccc(=O)[nH]n2)s1 (stereo not drawn),nt,-0.25
COc1cccc2c1c(NC(=O)c1cc(C)oc1C)nn2C,-1.1,nt
Cc1nc2ccccc2c2c1C(=O)N(CC1CCCO1)C2=O (stereo not drawn),7.4*,0.78
COc1ccc(S(=O)(=O)NCCCO)cc1-c1nnc2c3ccccc3c(C)nn12,-1.7,0.03
O=C(CN1Cc2ccccc2C1=O)N1CCN(c2ccccn2)CC1,nt,-0.61
CC1CC(=O)Nc2ccccc2O1 (stereo not drawn),-1.1,nt
COc1ccc(OC)c(Nc2cc(C)ncn2)c1,-1.6,1.3
CCCc1cc(=O)n2nc(N(C)CC(=O)NCc3ccc(C)o3)sc2n1,-0.18,-0.21
OC1c2ccccc2N=C2CCCN21 (stereo not drawn),nt,3.4
O=c1c2c(nc3nc(NCc4cccc(Br)c4)[nH]n13)CCC2,-1.8,0.02
CCS(=O)(=O)n1nc(-c2ccco2)nc1SCc1ccccc1,-0.18,-0.55
COc1ccc(-c2onc(C)c2C)cc1S(=O)(=O)N1CCOCC1,nt,0.19

Exported with two lines to a compound: 2 of the compounds above.
Values in the order: CDC25B CDK2 inh, HIV TAR-Tat
CSc1ccc(CCNC(=O)c2cnc3sc(N4CCOCC4)nn3c2=O)cc1
→ nt, 0.35
CN(CC1COc2ccccc2O1)S(=O)(=O)c1ccc(-c2ccc(=O)[nH]n2)s1 (stereo not drawn)
→ nt, -0.25

Quoted at random: 4 compounds from above
canonical_smiles,CDC25B CDK2 inh,HIV TAR-Tat
CN(CC1COc2ccccc2O1)S(=O)(=O)c1ccc(-c2ccc(=O)[nH]n2)s1 (stereo not drawn),nt,-0.25
CC1CCC(NC(=O)C2CCN(c3ncnc4c3nc3n4CCCCC3)CC2)CC1 (stereo not drawn),nt,-0.43
COC(=O)c1sc2cccc(F)c2c1S(=O)(=O)NCc1ccco1,nt,-0.33
OC1c2ccccc2N=C2CCCN21 (stereo not drawn),nt,3.4

A draw from above in order of SMILES length, rising:
canonical_smiles,CDC25B CDK2 inh,HIV TAR-Tat
CCS(=O)(=O)n1nc(-c2ccco2)nc1SCc1ccccc1,-0.18,-0.55
O=C(CN1Cc2ccccc2C1=O)N1CCN(c2ccccn2)CC1,nt,-0.61
COC(=O)c1sc2cccc(F)c2c1S(=O)(=O)NCc1ccco1,nt,-0.33

(continued)
canonical_smiles,CDC25B CDK2 inh,HIV TAR-Tat
O=C(Cn1c(=O)oc2ccccc21)NCc1cccc(Br)c1,-1.8,-0.92
Clc1ccccc1-c1nc(NCc2ccccc2)c2ccccc2n1,-2.3,nt
O=C(c1cc(S(=O)(=O)N2CCCCC2)c[nH]1)N1CCOCC1,nt,2.7
CCC(=O)Nc1nc2cc3sc(NC(=O)CC)nc3cc2s1,-0.37,nt
CCc1nn(CC(=O)NC2CC2)c(=O)c2cc3sccc3n12,-1.1,0.94
CC/C(=C\c1sc2ccc(OC)cc2[n+]1CC)SCC(=O)O,-1.4,-0.38
CCC(C(=O)O)n1nc(C)c2c(C)n(-c3ccccc3)nc2c1=O (stereo not drawn),2.1,1.3
Cn1c(C(=O)N2CCC(C(N)=O)CC2)cc2c(=O)n(C)c3ccccc3c21,-1.2,-0.83
CCCCCCc1cc2c(C)cc(=O)oc2cc1O,-2.1,nt
Cc1ccc(CNC(=O)c2cc3c(=O)n4cccc(C)c4nc3s2)cc1,-0.45,nt
COc1cccc(-c2noc(NCc3cccc(Cl)c3)n2)c1OC,nt,0.03
CN1CCN(c2ccc(CN3CCS(=O)(=O)CC3)cc2)CC1,-1.5,nt
CC(=O)N1N=C(c2cccc(NS(C)(=O)=O)c2)CC1c1ccco1 (stereo not drawn),0.47,nt
NC(=O)c1c(NC(=O)CSc2nc3ccccc3s2)sc2c1CCC2,-1.4,-0.16
CCC(C)Nc1sc(S(C)(=O)=O)nc1S(=O)(=O)c1ccc(C)cc1 (stereo not drawn),-0.95,-0.33
COc1cc(NC(C)CCCN)c2ncccc2c1 (stereo not drawn),nt,2
O=C(NCCC1=CCCCC1)c1ccc2c(=O)n3c(nc2c1)CCCCC3,-0.02,nt
CCOC(=O)c1sc(NC(=O)C(CC)Sc2nccn2C)nc1C (stereo not drawn),0.4,0.75
O=C(Cn1c(-c2cccs2)cc2ccccc21)NCc1ccco1,-0.25,1.8
Cc1c(Cl)cccc1Nc1ncnc2onc(C)c12,nt,0.74
CC(C)n1c(=O)[nH]c2c(c1=O)C(C)(C)Cc1ccccc1-2,-2.5,1.5
O=C(NC1(C(F)(F)F)Oc2ccccc2O1)N1CCc2ccccc21,2,nt
CN(C)CC(C)(C)CNS(=O)(=O)c1cccc2nsnc12,-0.99,1
O=C(O)C1CCCCN1S(=O)(=O)c1ccc(F)cc1 (stereo not drawn),0.54,-0.24
CSc1nc(C)cc(Nc2ccc(O)cc2)n1,-1.4,-0.3
CCOC(=O)N1CCN([C@H]2CS(=O)(=O)C[C@@H]2S(=O)(=O)c2cccs2)CC1,0.65,-0.83
CSc1nsc(SC)c1C(=O)NN1CCOCC1,-2.2,nt
O=C1CC(c2cc(F)ccc2F)c2cc3c(cc2N1)OCCO3 (stereo not drawn),-2.1,1.5
Nc1nnc(SCc2cc(F)cc3c2OCOC3)s1,0.31,nt
Cc1ccc(S(=O)(=O)c2nnn3c2nc(N2CCCCC2)c2sccc23)cc1,nt,-0.66
O=C(CSc1ccc(-c2cccs2)nn1)Nc1ccccc1F,nt,0.36
CN(C)c1ccc(O)c2c1C[C@H]1C[C@H]3[C@H](N(C)C)C(=O)C(C(N)=O)=C(O)[C@@]3(O)C(=O)C1=C2O,nt,20*
COc1ccc(-c2nc3c4cnn(-c5ccccc5)c4ncn3n2)cc1,-0.87,nt
CCOC(=O)c1c(C)oc2ncnc(NCc3cccs3)c12,nt,0.65
COc1ccc(COC(=O)C2=C(C)NC3=C(C(=O)CC(C)(C)C3)C2c2ccc(OC)cc2)cc1 (stereo not drawn),-0.2,2.4
COc1ccc(-c2noc(N3CCN(c4ccccc4)CC3)n2)cc1OC,nt,0.84
O=C(c1cccn1-c1nnc(N2CCOCC2)s1)N1CCN(c2ccc(Cl)cc2)CC1,nt,-0.03
CCC1CN(C(=O)Nc2ccc(F)c(Cl)c2)c2ccccc2S1 (stereo not drawn),nt,2.8
Cc1scc(CCNC(=O)NCC(C)C)c1C,nt,1
N/C(=N\OC(=O)C(Cl)Cl)c1cccc(Cl)c1Cl,-0.83,nt
O=C1C(=O)N(CCCn2ccnc2)C(c2ccccc2)/C1=C(\O)c1ccc(Br)cc1 (stereo not drawn),-1.4,-1.3
Cc1c(Sc2ccc(Cl)cc2)cnn1C(=O)NC(C)C,-1.1,nt
CCc1nc(SC)ncc1C(=O)NCCCN1CCCCC1C (stereo not drawn),nt,-3.4
Cn1c(=O)oc2cc(S(=O)(=O)NC3CCCCC3)ccc21,-1.2,-2
O=C(CCCn1c(=O)[nH]c2ccccc2c1=O)NC1CCCCC1,nt,2.3
COc1ccsc1/C=C1\CSc2ccc(Cl)cc2C1=O,-1.6,nt
COc1ccc(C(=O)C2C(c3ccc(O)cc3)NC(=O)NC2(O)C(F)(F)F)cc1 (stereo not drawn),1.9,nt
COc1ccc(NC(=O)c2sc(=S)n3c2[nH]c(=O)c2ccccc23)cc1,nt,1.5
Cc1nc2ncnn2c(C)c1CCC(=O)Nc1ccc(F)cc1F,0.22,nt
O=C1Nc2ccc(Br)cc2C(c2ccccc2)C1N1CCOCC1 (stereo not drawn),0.09,nt
COc1ccc(OC)c(S(=O)(=O)Nc2ccc(-c3ccc(S(C)(=O)=O)nn3)cc2)c1,nt,0.98
Nc1nnc(CC(=O)N2CCOCC2)o1,-1.8,-1.1
CCC(Sc1nc2ncccc2[nH]1)C(=O)NCC1CCCO1 (stereo not drawn),nt,1.1
N#Cc1cc([N+](=O)[O-])c2sc(C(N)=O)[n+]([O-])c2c1,-1.6,nt
CCCN1CCN(CCCNC(=O)Cn2nc(C)n3c(cc4cc(F)ccc43)c2=O)CC1,0.68,0.33
CCN(CC)c1ccc2nnc(CCC(=O)NCCN3CCOCC3)n2n1,nt,0.09
CC1=C(c2ccc(C)cc2)S(=O)(=O)N=C1N1CCN(c2ccccc2F)CC1,-9.2,0.89
CCOC(=O)Nc1cc(C(F)(F)F)cc(C(F)(F)F)c1,-1.8,nt
CCN1CCN(c2c(S(=O)(=O)c3ccc(OC)cc3)cnc3cc(OC)c(OC)cc23)CC1,0.26,1.6
COc1ccc(-c2nc(-c3ccc(Cl)cc3)no2)cc1,0.53,1.4
O=C1CC(Sc2ccc(Cl)cc2)C(=O)N1c1ccc(F)cc1F (stereo not drawn),-1.4,0.05

An unsorted share of the library; any-hit rate near 0.89%.
